# Compound activity: PubChem, National Center for Advancing Translational Sciences (NCATS)
# ClpP mod = qHTS Assay for Activators of ClpP; ATP-dependent Clp protease proteolytic subunit (Bacillus subtilis (strain 168)), P80244; hit rate 1.9% among 340,000; purified B. subtilis ClpP, FRET peptide cleavage, 20 min; Potency, µM (highest dose often 57.5 µM), inactives show at the highest dose activity change, negative = active; active = well fitted falling curve with a large enough effect; inconclusive = small, poorly fitted or top-dose-only effect; inactive = no such curve, though single readings can be large or run the other way; note: the source files actives as falling curves though it sought activators and does not explain the sign; nearly all actives have a fitted effect of over 65% in size; many hits overshoot -100%
# Target sequence (P80244 whole entry, looked up): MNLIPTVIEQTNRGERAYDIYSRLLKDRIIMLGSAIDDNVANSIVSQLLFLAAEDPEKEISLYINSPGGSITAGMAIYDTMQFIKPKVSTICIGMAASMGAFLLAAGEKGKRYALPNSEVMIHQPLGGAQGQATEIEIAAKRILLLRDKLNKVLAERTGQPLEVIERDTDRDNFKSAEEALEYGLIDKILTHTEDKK
#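 Purified B. subtilis ClpP, 10 microg/mL final in Tris/HCl pH8 with KCl, BSA, glycerol and Tween-20, cleaved an Abz/nitrotyrosine-quenched decapeptide. Fluorescence (ex 320, em 430) was read at 0 and 20 min at room temperature. Delta was normalized to 5.8 microM ADEP and DMSO/no-enzyme controls.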
# PINK1 modulator = PINK1 expression modulation; PINK1 immunofluorescence, high-content cytometry, 24 h; AID 624263; hit rate 0.2% among 410,000; Potency, µM (top dose mostly 76.6 µM), without a hit: top-dose activation (PINK1 increase), hits mostly activators; active = well fitted activation curve with a large enough effect; inconclusive = small, poorly fitted or top-dose-only effect; inactive = flat fitted curve, though single readings scatter; cell line not stated here;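 note: % of control where 0% means no effect; nearly all actives have a fitted effect of over 65% in size; a mitochondrial uncoupler was the plate control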
#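 Readout is PINK1 immunofluorescence, quantified alongside mitochondrial, cell and nuclear markers by laser-scanning microplate cytometry. Cells from a stable line were exposed to compound titrations (5 concentrations) for 24 hours, with CCCP controls.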
# * marks the source's active call; other numbers are inactive results; ? = inconclusive. Potency is the fitted concentration of half-maximal effect. Only part of the results is shown; the hit share may differ from the screen's.
SMILES,ClpP mod,PINK1 modulator
COc1ccc(OC)c(CNC(=O)c2ccc(NC(=O)c3nsc4ccccc34)cc2)c1,-19.0%,-0.1%
Cc1ccc(NC(=O)CSc2nnc3scc(-c4ccccc4)n23)cc1,0.8%,0.3%
COc1cc(OC)cc(C(=O)Nc2c(C(=O)Nc3ccc(F)cc3)oc3ccccc23)c1,4.3%,7.6%
CCN1CCN(C(c2ccccc2)c2sc3nc(-c4ccco4)nn3c2O)CC1 (stereo not given),0.5%,-0.7%
O=C(C[n+]1ccccc1Cl)c1ccc(O)c(O)c1,0.4%,1.0%
CCN(CCCNC(=O)c1cc2c(=O)n(CC)c3ccccc3c2s1)c1ccccc1,-5.3%,5.6%
O=C(Nc1ccc2c(c1)CCC2)c1cnn2c1NC(=C1CC1)C=C2C(F)F,-1.8%,-0.4%
O=C(Cn1c(=O)n(Cc2ccc(C(=O)NCc3ccccc3Cl)cc2)c(=O)c2ccccc21)Nc1ccc(F)c(Cl)c1,-12.1%,-0.3%
Cc1cc(C)c(S(=O)(=O)NCC(c2ccc(N(C)C)cc2)N2CCc3ccccc32)c(C)c1 (stereo not given),?,5.1%
COc1cc(-c2nc(SCC(=O)Nc3ccc(C)cc3)c(-c3ccc(F)cc3)[nH]2)cc(OC)c1OC,-25.6%,-0.1%
COCCCNC(=O)c1cc2n(n1)CCCN(Cc1ccc(C)cc1)C2=O,0.8%,0.0%
O=C(CSc1nnc(CNC(=O)c2ccccc2F)n1-c1ccccc1)Nc1ccccc1F,-1.3%,-0.8%
CN(C)c1oc(/C=C/c2ccc(F)cc2)nc1C#N,4.0%,-0.8%
CN(Cc1ccccc1)C(=O)CSc1c2c(nc3ccc(Cl)cc13)CCCC2,-5.5%,1.7%
CCC(=O)C1=C(c2ccc(F)cc2)N(C(=O)CC)n2c(nnc2C2CCCCC2)S1,-0.6%,3.0%
CC1CCCN(C(=O)c2cc3c(=O)n(C)c4ccccc4c3s2)C1 (stereo not given),-2.2%,4.7%
COc1ccc(C2C=C(c3ccccc3)Nc3nc(NC(=O)/C=C/c4ccc(Cl)cc4)nn32)cc1 (stereo not given),-13.1%,1.2%
Cc1ccc(CNC(=O)c2ccc(NC(=O)c3nsc4ccccc34)cc2)cc1,3.8%,3.8%
CCN(C(=O)Cn1cnc2sc(C)c(S(=O)(=O)N3CCN(c4ncccn4)CC3)c2c1=O)c1ccccc1F,-18.8%,0.6%
Cc1ccc(Cn2cc(CCC(=O)NCC(C)c3ccccc3)c3ccccc32)cc1 (stereo not given),?,-0.4%
CCOc1ccc(-c2nc(CNC(=O)Nc3ccccc3)c(C)o2)cc1,-1.2%,3.2%
CCOC(=O)c1sc2ncn(CC(=O)Nc3cc(C)cc(C)c3)c(=O)c2c1C,-1.2%,1.6%
CCOc1ccccc1NC(=O)CN(CCc1ccccc1)S(=O)(=O)c1ccc(C)cc1,-4.1%,3.3%
Cc1cccc(-n2cnc3cc(C(=O)NCc4ccccc4Cl)ccc32)c1,-4.3%,7.3%
O=C1CC(c2nnc(Cc3ccccc3Cl)o2)CN1c1ccccc1 (stereo not given),-1.0%,-2.3%
COC(=O)c1ccc(NC(=O)C2CCN(c3ncnc4c3nc3n4CCCCC3)CC2)cc1,-0.8%,3.4%
CN(C)c1ccc(/C=C/c2ccnc3c(N)cccc23)cc1,0.3%,9.3%
CCOc1ccccc1N1CC(c2nc3ccccc3n2CCCOc2ccc(OC)cc2)CC1=O (stereo not given),-10.9%,0.6%
Cc1ccc2onc(CC(=O)Nc3cc(F)ccc3F)c2c1,-2.8%,-0.3%
Cc1cccc(CC(=O)N2CC(=O)Nc3ccc(F)cc3C2c2ccccc2)c1 (stereo not given),0.9%,-1.2%
Cc1ccc(CNC(=O)C2CCN(C(=O)c3ccc(-n4ccc5ccccc54)s3)CC2)cc1,?,1.4%
O=C(NCc1ccccc1)c1nn(-c2ccccc2)nc1CO,31.6µM*,-0.7%
COc1ccc(S(=O)(=O)NCCSc2nnnn2-c2ccccc2)cc1,2.1%,-0.5%
CCOC(=O)c1c(N)n(-c2cccc(C)c2C)c2nc3ccccc3nc12,-15.1%,4.6%
Cc1ccc(-n2ccnc(NCCc3ccc(S(N)(=O)=O)cc3)c2=O)cc1C,-18.4%,1.1%
COc1cccc(-c2ccc3c(N)c(C(=O)Nc4cc(C(F)(F)F)ccc4OC)sc3n2)c1,-5.1%,1.2%
O=C(CCCN1C(=O)c2cccnc2Oc2ccc(Cl)cc21)NCc1ccc(F)cc1,-1.5%,-1.5%
Cc1cc(C)c(NC(=O)CCN2CCCCC2)c(C)c1,1.9%,4.0%
Cc1ccc(-n2nc(C(=O)NCCN(C)C)c(=O)n(C)c2=O)cc1,-0.5%,-0.3%
COc1cccc(C(=O)Nc2ccccc2-c2nnc(-c3cccc(OC)c3)o2)c1,1.5%,-4.1%
FC(F)(F)c1cc(Nc2nc3ccccc3c3nncn23)ccc1Cl,?,-0.4%
CCOc1ccc(S(=O)(=O)N2CCN(c3cc(Cl)ccc3Cl)CC2)c2ccccc12,?,-1.5%
CC(C)(C)c1nnc(NC(=O)C2CCN(C(=O)c3ccccc3)CC2)s1,0.7%,-0.7%
CC1CCN(c2cc3c(cc2F)c(=O)c(S(=O)(=O)c2ccc(Cl)cc2)cn3C)CC1,-18.9%,1.2%
N#Cc1ccccc1NC(=O)C(=O)NCC(c1ccc2c(c1)OCO2)N1CCN(c2ccccc2)CC1 (stereo not given),-0.1%,0.9%

# The list goes on, starting with the last 2 of the part before.
SMILES,ClpP mod,PINK1 modulator
CC1CCN(c2cc3c(cc2F)c(=O)c(S(=O)(=O)c2ccc(Cl)cc2)cn3C)CC1,-18.9%,1.2%
N#Cc1ccccc1NC(=O)C(=O)NCC(c1ccc2c(c1)OCO2)N1CCN(c2ccccc2)CC1 (stereo not given),-0.1%,0.9%
COc1ccc(C(=O)Nc2cccc(-c3cn4ccsc4n3)c2)cc1OC,1.9%,2.5%
COc1ccc(N2CCN(c3ccc(-c4nc(-c5cccc(C)c5)no4)cc3[N+](=O)[O-])CC2)cc1,0.5%,2.3%
Cc1ccc2oc(-c3ccc(NC(=O)c4cccc(F)c4)c(C)c3)nc2c1,-11.2%,-0.1%
Cn1c(=O)c2sccc2n2c(CCCC(=O)Nc3ccc(Oc4ccccc4)cc3)nnc12,-4.9%,-1.2%
COc1ccccc1Nc1nn2c(=O)c3ccc(C(=O)NCc4cccs4)cc3nc2s1,-13.3%,0.0%
Cc1ccc(NC(=O)CSc2ncnc3c2sc2ccccc23)cc1C,-2.0%,1.5%
COc1ccc(Nc2ncnc3scc(-c4ccc(F)cc4)c23)cc1,?,0.6%
COC(=O)c1ccccc1NC(=O)Cn1c(=O)n(CCCCC(=O)NCc2ccc3c(c2)OCO3)c(=O)c2ccccc21,-6.0%,0.5%
CCOC(=O)c1c(NC(=O)c2ccc(Br)cc2)sc2c1CCCC2,-0.5%,1.5%
COc1ccc(NC(=O)Cn2c(=O)c3cccn3c3ccccc32)cc1Cl,0.0%,-0.7%
Cc1ccc(CCNC(=O)c2sc3nc4n(c(=O)c3c2C)CCCC4)cc1,-6.3%,0.4%
COC(=O)CN1C(=O)CSc2ccc(S(=O)(=O)Nc3cccc(Br)c3)cc21,-2.4%,0.9%
COc1ccc(S(=O)(=O)c2nnn(-c3ccc(C)c(Cl)c3)c2C)cc1,-6.1%,1.9%
C(=C\c1ccnc2ccccc12)/c1ccc(N2CCOCC2)cc1,1.1%,?
CC(C)c1ccc(NC(=O)N2CCN(c3ccc(Cl)c(Cl)c3)CC2)cc1,0.8%,3.5%
CCOc1ccc(CNC(=O)c2sc3nc(C)cc(C)c3c2-n2cccc2)cc1,-1.7%,?
COc1ccc(CNC(=O)Cc2c(C)c3c(cc(C)c4c(C)c(C)oc43)oc2=O)cc1OC,-29.4%,1.5%
COc1cc(CN(C(=O)Nc2ccccc2)c2ccccn2)cc(OC)c1OC,-4.2%,1.4%
CCOc1ccccc1N(CC)C(=O)c1cc2ccc3cccnc3c2[nH]1,2.0%,1.0%
O=[N+]([O-])c1ccc(O)c(-c2ccnc3cc(-c4ccccc4)nn23)c1,-0.4%,?
CCOC(=O)c1c(-c2ccc(C)cc2)csc1NC(=O)c1cc(-c2ccc(OC)cc2)on1,-0.8%,0.8%
COc1ccc(OC)c(NC(=O)c2cc(C3CC3)nc3c2c(C)nn3-c2ccc(C)cc2)c1,?,0.0%
Cc1ccc(-n2c(=O)c3c(c4cc(C)ccc4n3C)n(CC(=O)Nc3cc(C)cc(C)c3)c2=O)cc1,-15.3%,1.6%
CCc1cccc(C)c1NC(=O)CSc1nc2c(c(=O)[nH]1)CCC2,-4.1%,-1.2%
Cn1cc(C(=O)NCCc2ccccc2)c(=O)c2cc(S(=O)(=O)N3CCCCC3)ccc21,-1.3%,2.2%
Cc1ccc(Cl)cc1NC(=O)c1ccc2snnc2c1,-0.3%,2.7%
CCN(CC)CCCNC(=O)Cn1nc(N2CCN(c3ccccc3OC)CC2)ccc1=O,?,4.0%
Cc1ccc(NC(=O)[C@@H](c2ccccc2)N2Cc3ccccc3C2=O)cc1F,-2.5%,1.9%
O=C(/C=C/c1ccccc1)Nc1cc(-c2nc3ccccc3o2)ccc1Cl,-0.7%,0.7%
Cc1cccc(-c2nc(S(=O)(=O)c3ccc(Cl)cc3)c(N3CCCCCC3)o2)c1,?,-0.7%
CCCCCN1C(C(=O)c2ccccc2)=C(NC(=O)c2ccc(OC)c(OC)c2)c2ccccc2S1(=O)=O,0.6%,1.7%
CC(=O)N1c2ccc(S(=O)(=O)N3CCCCCC3)cc2CC1C(=O)NCc1ccccc1F (stereo not given),-0.7%,0.1%
O=C(Cc1ccc(F)cc1)NCc1ccc2c(c1)CCN2C(=O)c1ccc(F)cc1,1.2%,0.6%
COc1ccc(C2C(=O)N(C3CCCCCC3)CC(=O)N2Cc2ccccc2)cc1 (stereo not given),1.6%,1.7%
Cc1cn2c(=O)cc(COC(=O)c3ccc(NC(=O)COc4ccccc4C)cc3)nc2s1,-15.4%,2.1%
COc1ccc(OC)c(NC(=O)N2CCC(N3CCN(Cc4ccc(F)cc4)C(=O)C3=O)CC2)c1,-0.9%,0.6%
Cc1ccc(C)c(Cn2c(SCC(=O)NCc3ccccc3)nc3ccccc32)c1,-1.4%,0.6%
CC(C)n1nnnc1C1c2ccccc2C(=O)N1Cc1cccnc1 (stereo not given),3.0%,-0.4%
COc1ccc(CNC(=O)c2ccc3c(O)c(S(=O)(=O)c4ccccc4)c(=O)[nH]c3c2)cc1,-27.0%,-0.8%
Cc1cc(F)ccc1S(=O)(=O)NCC(c1ccco1)S(=O)(=O)c1cccs1 (stereo not given),1.9%,-0.6%
COc1ccc(Br)cc1CNC(=O)Cn1c(=O)c2cccn2c2ccc(F)cc21,-13.5%,1.7%
COc1ccc(CNC(=O)Cn2nc3c(cc2=O)CCCC3)cc1,-1.1%,1.3%
Cn1nc(-c2ccccc2F)c2cc(C(=O)N3CCN(c4ccccc4F)CC3)sc21,-11.0%,0.6%
CCc1ccc(C(=O)c2cn(CC(=O)Nc3cc(C)ccc3C)c3nc(C)ccc3c2=O)cc1,-1.5%,1.5%
CC(C)[C@@H]1Cc2[nH][nH]c(=O)c2[C@H](C)O1,2.8%,0.6%

# Look-ups from the results shown:
# Value of COc1ccc(OC)c(NC(=O)N2CCC(N3CCN(Cc4ccc(F)cc4)C(=O)C3=O)CC2)c1 in ClpP mod: -0.9%
# Value of CN(Cc1ccccc1)C(=O)CSc1c2c(nc3ccc(Cl)cc13)CCCC2 in ClpP mod: -5.5%
# Value of CN(C)c1oc(/C=C/c2ccc(F)cc2)nc1C#N in PINK1 modulator: -0.8%
# Value of Cc1ccc(-n2c(=O)c3c(c4cc(C)ccc4n3C)n(CC(=O)Nc3cc(C)cc(C)c3)c2=O)cc1 in PINK1 modulator: 1.6%

# Following part.
SMILES,ClpP mod,PINK1 modulator
COc1cccc(C(=O)NCC(c2ccc(N(C)C)cc2)N2CCc3ccccc32)c1 (stereo not given),-11.3%,1.8%
COc1ccc(CCNC(=O)c2ccc(Cn3c(=O)c4ccccc4n(CC(=O)C(C)(C)C)c3=O)cc2)cc1OC,0.6%,1.5%
COC(=O)c1ccc2nc(-c3ccccc3)c(Cc3ccc(OC)cc3C)n2c1,?,1.1%
CC(=O)N1CCc2c(sc3c2c(=O)n(-c2ccccc2)c(=O)n3CC(=O)Nc2cccc(C)c2)C1,-3.1%,3.1%
CCOC(=O)c1c(NC(=O)COc2cccc(C)c2C)sc(C(C)=O)c1C,0.6%,1.4%
CC1CCN(C(=O)CSc2nnc(-c3ccccc3Cl)o2)CC1,1.3%,0.9%
Cc1cccc(N2CCN(C(=O)c3cc4ccc5cccnc5c4[nH]3)CC2C)c1 (stereo not given),?,-1.2%
CCc1ccc(-c2[nH]nc3nc(-c4ccc(OC)cc4)cc(C(=O)NCCCOC)c23)cc1,-1.0%,0.4%
CCOc1cc(C(=O)NCC(c2ccc(N(C)C)cc2)N2CCOCC2)cc(OCC)c1OCC (stereo not given),0.2%,-1.7%
CCCCCCCCN1C(=O)[C@H](CC(=O)N2CCN(C(=O)OCC)CC2)C[C@@]2(C(=O)OC)CCCCC=C12,0.4%,1.7%
Cc1csc2nc(COC(=O)c3ccccc3NC(=O)c3ccccc3Cl)cc(=O)n12,-1.6%,-1.3%
